Cruzain Triton: inhibitors of Trypanosoma cruzi cruzain with detergent; Potency, µM, inactives show max response, negative = inhibition, hits mostly inhibitors; AID 1478; purified cruzain, Z-FR-AMC fluorescence, 0.01% Triton; P25779; 0.43% of 200,000 active;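 further: plate controls were neutral wells for no effect and buffer without enzyme for full effect; nearly all actives have a fitted effect of over 40% in size; top concentration of the series not given in the record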
Target sequence (P25779 123-467 limits assumed): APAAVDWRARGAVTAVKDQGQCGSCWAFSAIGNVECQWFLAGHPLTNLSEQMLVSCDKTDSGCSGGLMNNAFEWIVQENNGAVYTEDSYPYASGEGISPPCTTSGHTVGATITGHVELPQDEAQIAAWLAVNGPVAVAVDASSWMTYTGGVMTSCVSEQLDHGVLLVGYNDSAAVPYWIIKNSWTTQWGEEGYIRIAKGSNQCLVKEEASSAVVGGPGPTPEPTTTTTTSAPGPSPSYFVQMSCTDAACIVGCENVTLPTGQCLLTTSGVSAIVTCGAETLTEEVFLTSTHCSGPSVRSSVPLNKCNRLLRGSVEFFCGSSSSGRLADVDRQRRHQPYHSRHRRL
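Enzyme 1.5 nM, Z-FR-AMC 2 uM, NaOAc 100 mM pH 5.5, DTT 5 mM, Triton X-100 0.01%; 15 min RT compound preincubation; kinetic ex360/em450, 60 s delta.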
NS1 function inh: blocks influenza NS1 protein function. S. cerevisiae slowed by influenza A NS1, growth recovery by OD600. Potency, µM (top dose mostly 46.1 µM), without a hit: top-dose activity, positive = more growth. 0.4% of 270,000 active; active means well fitted rising curve with a large enough effect; inconclusive means small, poorly fitted or top-dose-only effect; inactive means no such curve, though single readings can be large or run the other way; further: nearly all actives have a fitted effect of over 50% in size
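Compounds were scored for reversing the slow growth caused by influenza A NS1 in S. cerevisiae, measured by optical density at 600 nm. Assay medium contained 2% galactose at pH 6.0; NS1-free yeast of the same strain were the positive control.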
Cruzain inh noDet: inhibitors of Trypanosoma cruzi cruzain without detergent; 2.3% of 200,000 active; purified cruzain, Z-FR-AMC fluorescence, no detergent; P25779; AID 1476; Potency, µM, for the others: max response, negative = inhibition, actives largely listed as inhibitors;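 further: plate controls were enzyme without inhibitor for no effect and buffer without enzyme for full effect; nearly all actives have a fitted effect of over 40% in size; top concentration of the series not given in the record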
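Purified cruzain at 1.5 nM, pre-incubated 15 min with compound at room temperature in 100 mM sodium acetate pH 5.5, 5 mM DTT, 0.00005% Triton X-100. Reaction started with 2 uM Z-FR-AMC; AMC fluorescence increase over 60 s gives rate.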
MARV entry inh: Marburg virus entry inhibition | Marburg virus pseudotyped entry inhibition, cell reporter; control for the full effect not named in the record; about a third of the inactives were read at about 46 µM | Potency, µM (top dose mostly 37.8 µM), without a hit: top-dose activity change, negative = inhibition, most hits filed as inhibitors | 1.8% of 300,000 active | AID 540276; active = well fitted inhibition curve with a large enough effect; inconclusive = small, poorly fitted or top-dose-only effect, or effect the other way; inactive = flat fitted curve, though single readings scatter; tested in HEK293 cells; about a fifth of its hits are not listed in these tables; further: on the % scale 0 is the no-effect control and ±100 the full control effect; luciferase read-out
2A StopGo: lowers the luciferase signal of an FMDV 2A StopGo reporter; human cells with a luciferase reporter of 2A StopGo recoding; control for the full effect not named in the record; Potency, µM (series often up to 57.9 µM), for the others: at the top dose signal change, negative = less light; 1.2% of 410,000 active; AID 1159524; active = well fitted falling curve with a large enough effect; inconclusive = small, poorly fitted or top-dose-only effect; inactive = no such curve, though single readings can be large or run the other way; tested in HEK293T cells; further: on the % scale 0 is the no-effect control and ±100 the full control effect; nearly all actives have a fitted effect of over 45% in size; luciferase light after 4 h
RE007 growth inh: less growth of the S. pombe RE007 Vpr strain | S. pombe RE007 Vpr strain, BacTiter-Glo ATP luminescence, 24 h; control for the full effect not named in the record | Potency, µM (titrated, usually from 92.2 µM), for the others: at the top dose activity change, negative = less growth | 0.21% of 360,000 active; active = well fitted falling curve with a large enough effect; inconclusive = small, poorly fitted or top-dose-only effect; inactive = no such curve, though single readings can be large or run the other way;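 further: on the % scale 0 is the no-effect control and ±100 the full control effect; nearly all actives have a fitted effect of over 50% in size; the assay follows cell death caused by Vpr and the record does not say whether a fall means rescue or toxicity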
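Fission yeast strain RE007, carrying one chromosomally integrated HIV-1 vpr copy, was seeded at OD 0.01 in PMG+AL medium with 23 nL pinned compound. After 24 h at 30 °C and 99% humidity, viability was read by BacTiter-Glo luminescence.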
SARS PLP yeast: blocks SARS-CoV papain-like protease in a yeast assay. S. cerevisiae expressing SARS-CoV PLpro, growth rescue; control for the full effect not named in the record. Potency, µM (highest dose often 32.9 µM), without a hit: at the top dose activity, positive = growth rescue. 0.19% of 330,000 active. AID 485353; active means well fitted rising curve with a large enough effect; inconclusive means small, poorly fitted or top-dose-only effect; inactive means no such curve, though single readings can be large or run the other way; further: 0% is about no effect; nearly all actives have a fitted effect of over 55% in size; growth read by luminescence after 48 h
Lassa entry inh: Lassa virus entry inhibition. Lassa virus pseudotype entry inhibition, cell reporter; control for the full effect not named in the record. Potency, µM (top dose mostly 37.9 µM), for the others: at the highest dose activity change, negative = inhibition, usual class: inhibitors. 1.2% of 300,000 active. AID 540256; active means well fitted inhibition curve with a large enough effect; inconclusive means small, poorly fitted or top-dose-only effect, or effect the other way; inactive means flat fitted curve, though single readings scatter; tested in HEK293 cells; further: on the % scale 0 is the no-effect control and ±100 the full control effect; nearly all actives have a fitted effect of over 50% in size; luciferase read-out
An asterisk follows results filed as active; & = joins results of further samples; [ ] = another dose, or the depositor's remark. Unless noted, the call rests on the fitted dose curve; in most records, active means well fitted curve in the direction sought with a large enough effect; inconclusive means small, poorly fitted or top-dose-only effect, or another doubt; inactive means no such curve, though single readings can be large; an effect the other way counts as inactive or inconclusive. Potency means the concentration at half of the fitted maximal effect.

What do the screens show for `COc1ccc(N2CCN(C(=O)c3cc4c(s3)-c3c(C)cccc3OC4)CC2)cc1`?
Cruzain Triton: 0.4%; Cruzain inh noDet: 10%; MARV entry inh: 0%[46.1 µM]; 2A StopGo: -8%

What do the screens show for `CCCCCCn1c(SCCCC)nc2c1c(=O)[nH]c(=O)n2C`?
Cruzain Triton: -1.3%; NS1 function inh: 5%; Cruzain inh noDet: inconclusive; MARV entry inh: -15%; 2A StopGo: 0%; RE007 growth inh: 5%; SARS PLP yeast: -2%; Lassa entry inh: -2%

Results for C[C@]12CCC(O)CC1=CCC1C2CC[C@]2(C)/C(=N\NC(N)=S)CCC12 (stereo partly drawn) ?
NS1 function inh: 4%; 2A StopGo: -11%; RE007 growth inh: 0%; SARS PLP yeast: 0%

Results for Cc1nn2cnnc2c(C)c1Cc1ccc(Cl)cc1 ?
NS1 function inh: -11%; 2A StopGo: inconclusive; RE007 growth inh: 1%; SARS PLP yeast: -2%

Results for Cc1cc(C)c(OCCN2CCOCC2)c(Cl)c1 ?
NS1 function inh: -18%; 2A StopGo: 16%; RE007 growth inh: -23%; SARS PLP yeast: -10%

What do the screens show for `COc1cc(OC)cc(C(=O)NCCCN2CCN(CCCNC(=O)c3cc(OC)cc(OC)c3)CC2)c1`?
Cruzain Triton: -7.3%; NS1 function inh: 6%; Cruzain inh noDet: -6%; MARV entry inh: -5%; 2A StopGo: -12%; RE007 growth inh: 1%; SARS PLP yeast: -19%; Lassa entry inh: -8%

What do the screens show for `CCOc1cc(C2C3=C(CC(C)(C)CC3=O)Nc3n[nH]c(C)c32)ccc1O` (stereo not drawn)?
MARV entry inh: -2%[46.1 µM]; 2A StopGo: -12%; RE007 growth inh: 1%; SARS PLP yeast: 0%; Lassa entry inh: 23%[46.1 µM]

Results for c1coc(CNCCc2c[nH]c3ccccc23)c1 ?
NS1 function inh: 16%; MARV entry inh: inconclusive; 2A StopGo: -2%; RE007 growth inh: -4%; SARS PLP yeast: 5%; Lassa entry inh: 15%[46.1 µM]

How did COc1ccc(-c2cc(-c3ccc(O)cc3)nc(N)c2C#N)cc1OC do in these assays?
NS1 function inh: 1%; MARV entry inh: 4.5µM*; 2A StopGo: 10%; RE007 growth inh: -4%; SARS PLP yeast: 0%; Lassa entry inh: inconclusive

What do the screens show for `CC(C)CNC(=O)c1ccccc1Oc1ccccc1`?
Cruzain Triton: -0.8%; NS1 function inh: 5%; Cruzain inh noDet: -5%; MARV entry inh: inconclusive; 2A StopGo: -29%; RE007 growth inh: 4%; SARS PLP yeast: 5%; Lassa entry inh: 2%

What do the screens show for `CN(C)CC(C)(C)NS(=O)(=O)c1ccc(Cl)cc1`?
Cruzain Triton: 2.4%; NS1 function inh: 5%; Cruzain inh noDet: -4%; MARV entry inh: -1%; RE007 growth inh: -16%; SARS PLP yeast: -5%; Lassa entry inh: 12%

Results for COc1ccc(C(C)(C)C)cc1NC(=O)CNc1cccc2ccccc12 ?
Cruzain Triton: -17%; NS1 function inh: -21%; Cruzain inh noDet: inconclusive; MARV entry inh: inconclusive; 2A StopGo: 8%; RE007 growth inh: 40%; SARS PLP yeast: 0%; Lassa entry inh: inconclusive

Results for COCC(=O)NCc1nc2cccnc2n1Cc1ccc(F)cc1 ?
Cruzain Triton: 0.9%; Cruzain inh noDet: -10%; 2A StopGo: -9%; Lassa entry inh: 3%[46.1 µM]

How did CCCCCCCNC(=O)C1(CC2CC(c3ccc(Cl)cc3)=NO2)CCNCC1 (stereo not drawn) do in these assays?
NS1 function inh: 15%; 2A StopGo: -25%; RE007 growth inh: 2%; SARS PLP yeast: 12%

How did C=CCNC(=S)/C(=C(\[O-])c1ccc(Cl)cc1)[n+]1ccccc1 do in these assays?
NS1 function inh: 0%; MARV entry inh: inconclusive; 2A StopGo: 10%; RE007 growth inh: -10%; SARS PLP yeast: 0%; Lassa entry inh: 0%[46.1 µM]

How did CCOc1ccccc1/C=C(/NC(=O)c1ccccc1)C(=O)NC(C)c1ccccc1 (stereo not drawn) do in these assays?
Cruzain Triton: -4.8%; NS1 function inh: -4%; Cruzain inh noDet: -13%; MARV entry inh: -23%; 2A StopGo: 3%; RE007 growth inh: -4%; SARS PLP yeast: -2%; Lassa entry inh: -14%

What do the screens show for `Brc1cnc(OCc2ccccc2)nc1OCc1ccccc1`?
MARV entry inh: 4%[46.1 µM]; 2A StopGo: 3%; RE007 growth inh: -1%; Lassa entry inh: -5%[46.1 µM]

What do the screens show for `O=C(CSc1ncn[nH]1)N1CCN(S(=O)(=O)c2ccc(Cl)cc2)CC1`?
Cruzain Triton: 2.9%; NS1 function inh: 9%; Cruzain inh noDet: -2%; MARV entry inh: 0%; 2A StopGo: -14%; RE007 growth inh: 11%; SARS PLP yeast: 24%; Lassa entry inh: 2%

What do the screens show for `COc1ccc(N2CCN(C(=O)c3cc4c(=O)n(Cc5ccco5)ccc4nc3C)CC2)cc1`?
Cruzain Triton: -3.1%; Cruzain inh noDet: inconclusive; 2A StopGo: -26%; Lassa entry inh: 3%[46.1 µM]

Results for COCCSc1ccccc1C(=O)N1CCc2ccccc21 ?
NS1 function inh: 8%; MARV entry inh: 15%; 2A StopGo: 2%; RE007 growth inh: 6%; SARS PLP yeast: -9%; Lassa entry inh: 5%

Results for COc1ccc(F)cc1S(=O)(=O)Nc1cc2c3c(c1)CCN3C(=O)CC2 ?
MARV entry inh: inconclusive; 2A StopGo: 55%[activator]; RE007 growth inh: -7%; SARS PLP yeast: 5%; Lassa entry inh: inconclusive

What do the screens show for `COc1ccc(C(C)=O)cc1COc1cccc2c1OC(C)(C)C2`?
NS1 function inh: -2%; MARV entry inh: -27%; 2A StopGo: -24%; RE007 growth inh: 10%; SARS PLP yeast: -6%; Lassa entry inh: -3%

How did Cc1ccc(CC(=O)O/N=C(\N)c2ccncc2)cc1 do in these assays?
NS1 function inh: -16%; 2A StopGo: 0%; RE007 growth inh: 2%; SARS PLP yeast: -5%

Results for CCSc1nnc(NC(=O)CSc2nnc(Cc3cccn3C)n2CCc2ccccc2)s1 ?
Cruzain Triton: -7.7%; NS1 function inh: -20%; Cruzain inh noDet: inconclusive; MARV entry inh: inconclusive; 2A StopGo: -12%; RE007 growth inh: -15%; SARS PLP yeast: 13%; Lassa entry inh: 8%

What do the screens show for `CCOc1ccc(S(=O)(=O)NCCC(=O)NCc2cccnc2)cc1`?
MARV entry inh: inconclusive; 2A StopGo: 24%; RE007 growth inh: -9%; SARS PLP yeast: -2%; Lassa entry inh: 3%

How did CC(C)OC(=O)CC(=O)c1sc2nc3c(cc2c1N)CN(C)CC3 do in these assays?
Cruzain Triton: -8.1%; NS1 function inh: 15%; Cruzain inh noDet: 3%; MARV entry inh: -3%; 2A StopGo: 1%; RE007 growth inh: -4%; SARS PLP yeast: -5%; Lassa entry inh: -4%

Results for CCOc1ccc(-n2c(SC)nc3c(c2=O)SCC3)cc1 ?
Cruzain Triton: 3.1%; NS1 function inh: 2%; Cruzain inh noDet: 10%; MARV entry inh: inconclusive; 2A StopGo: 13%; RE007 growth inh: 1%; SARS PLP yeast: -4%; Lassa entry inh: -4%

What do the screens show for `CCc1cc(C(=O)OC)c(NC(=O)CC2NCCNC2=O)s1` (stereo not drawn)?
Cruzain Triton: -1.4%; NS1 function inh: -2%; Cruzain inh noDet: -5%; MARV entry inh: 10%; 2A StopGo: 23%; RE007 growth inh: -4%; SARS PLP yeast: 2%; Lassa entry inh: -2%

Results for CCCCOc1ccc(CNC(=S)N/N=C/c2ccc(OC)c(OC)c2)cc1 ?
Cruzain Triton: 0.3%; NS1 function inh: 30%; Cruzain inh noDet: inconclusive; MARV entry inh: inconclusive; 2A StopGo: -25%; RE007 growth inh: 13%; SARS PLP yeast: inconclusive; Lassa entry inh: inconclusive

Results for O=C1c2ccccc2C(=O)c2c1cccc2N1CCN(CCO)CC1 ?
Cruzain Triton: -2.3%; NS1 function inh: -2%; Cruzain inh noDet: 7%; MARV entry inh: inconclusive; 2A StopGo: -8%; RE007 growth inh: -16%; SARS PLP yeast: -2%; Lassa entry inh: inconclusive

How did COc1cc(C2c3c(-c4ccccc4)n[nH]c3C(=O)N2c2ccc(C(=O)O)cc2)ccc1O (stereo not drawn) do in these assays?
Cruzain Triton: -3.4%; NS1 function inh: inconclusive; Cruzain inh noDet: -23%; MARV entry inh: -5%; 2A StopGo: 2%; RE007 growth inh: 1%; SARS PLP yeast: 12%

What do the screens show for `O=C1C(=O)N(CNc2cccnc2)c2ccccc21`?
Cruzain Triton: 1.6%; NS1 function inh: 14%; Cruzain inh noDet: -10%; MARV entry inh: inconclusive; 2A StopGo: -16%; RE007 growth inh: 0%; SARS PLP yeast: -2%; Lassa entry inh: 0%

Results for CC1=C(C(=O)N2CCCC(CCC(=O)NCc3ccc(F)c(F)c3)C2)OCCO1 (stereo not drawn) ?
NS1 function inh: -2%; 2A StopGo: 10%; RE007 growth inh: 8%; SARS PLP yeast: 0%

Results for O=C1CC(C(=O)N2CCCc3ccccc32)CN1c1ccc(F)cc1 (stereo not drawn) ?
NS1 function inh: 10%; MARV entry inh: -4%[46.1 µM]; 2A StopGo: -4%; RE007 growth inh: -3%; SARS PLP yeast: 2%; Lassa entry inh: 0%[46.1 µM]

Results for O=C(NCCCSc1ccccc1)c1cnc(Cl)c(Cl)c1 ?
NS1 function inh: -6%; MARV entry inh: -1%[46.1 µM]; 2A StopGo: 9%; RE007 growth inh: -19%; SARS PLP yeast: -2%

What do the screens show for `CCOC(=O)c1sc(NC(=O)CSc2ncccn2)c(C#N)c1C`?
Cruzain Triton: 12%; NS1 function inh: -1%; Cruzain inh noDet: 9%; MARV entry inh: 11%&1%; 2A StopGo: 14%; RE007 growth inh: -8%; SARS PLP yeast: -1%; Lassa entry inh: -7%

What do the screens show for `COc1ccccc1NC(=O)C1CCN(S(=O)(=O)c2ccc3c(c2)NC(=O)C(C)S3)CC1` (stereo not drawn)?
NS1 function inh: 17%; 2A StopGo: inconclusive; RE007 growth inh: -4%; SARS PLP yeast: -2%

How did CCn1nc(C)c2c(-c3ccccc3)cc(=O)n(C(C)C(=O)NCCc3ccccc3)c21 (stereo not drawn) do in these assays?
Cruzain Triton: -8.4%; Cruzain inh noDet: inconclusive; 2A StopGo: -10%; Lassa entry inh: inconclusive
